T cruzi inh = T. cruzi replication inhibition; AID 1885; hit rate 1.4% among 300,000; T. cruzi beta-gal in NIH3T3, luminescence, 90 h; inhibition, % (no concentration beside the values);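 active = mean inhibition across valid replicates above about 55%, limit read from the data; inconclusive = mean below that limit but half or more replicates reach it; inactive = mean below it, under half of replicates reach it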;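 also: signal also drops with host cell toxicity which is not excluded here; 0% = plate median of DMSO wells and 100% = zero luminescence signal; higher percent means less beta-gal luminescence so fewer parasites; stock transfer was 50 nL into about 50 µL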
LANA-H2B inh = blocks KSHV LANA binding to histone H2A/H2B; hit rate 0.6% among 320,000; cell-free LANA-H2A/H2B peptide, fluorescence polarization; inhibition, % (test concentration not listed); AID 2629; Q9QR71; in the data active = inhibition mostly above about 10%, no sharp cut-off; inactive = mostly below about 6.7%;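 also: stock transfer was 7.5 nL into about 10 µL; 0% = median of vehicle wells and 100% = median of positive control wells; one replicate is shown; the record names a cut of 25% in any replicate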
Target sequence (Q9QR71 whole entry, looked up): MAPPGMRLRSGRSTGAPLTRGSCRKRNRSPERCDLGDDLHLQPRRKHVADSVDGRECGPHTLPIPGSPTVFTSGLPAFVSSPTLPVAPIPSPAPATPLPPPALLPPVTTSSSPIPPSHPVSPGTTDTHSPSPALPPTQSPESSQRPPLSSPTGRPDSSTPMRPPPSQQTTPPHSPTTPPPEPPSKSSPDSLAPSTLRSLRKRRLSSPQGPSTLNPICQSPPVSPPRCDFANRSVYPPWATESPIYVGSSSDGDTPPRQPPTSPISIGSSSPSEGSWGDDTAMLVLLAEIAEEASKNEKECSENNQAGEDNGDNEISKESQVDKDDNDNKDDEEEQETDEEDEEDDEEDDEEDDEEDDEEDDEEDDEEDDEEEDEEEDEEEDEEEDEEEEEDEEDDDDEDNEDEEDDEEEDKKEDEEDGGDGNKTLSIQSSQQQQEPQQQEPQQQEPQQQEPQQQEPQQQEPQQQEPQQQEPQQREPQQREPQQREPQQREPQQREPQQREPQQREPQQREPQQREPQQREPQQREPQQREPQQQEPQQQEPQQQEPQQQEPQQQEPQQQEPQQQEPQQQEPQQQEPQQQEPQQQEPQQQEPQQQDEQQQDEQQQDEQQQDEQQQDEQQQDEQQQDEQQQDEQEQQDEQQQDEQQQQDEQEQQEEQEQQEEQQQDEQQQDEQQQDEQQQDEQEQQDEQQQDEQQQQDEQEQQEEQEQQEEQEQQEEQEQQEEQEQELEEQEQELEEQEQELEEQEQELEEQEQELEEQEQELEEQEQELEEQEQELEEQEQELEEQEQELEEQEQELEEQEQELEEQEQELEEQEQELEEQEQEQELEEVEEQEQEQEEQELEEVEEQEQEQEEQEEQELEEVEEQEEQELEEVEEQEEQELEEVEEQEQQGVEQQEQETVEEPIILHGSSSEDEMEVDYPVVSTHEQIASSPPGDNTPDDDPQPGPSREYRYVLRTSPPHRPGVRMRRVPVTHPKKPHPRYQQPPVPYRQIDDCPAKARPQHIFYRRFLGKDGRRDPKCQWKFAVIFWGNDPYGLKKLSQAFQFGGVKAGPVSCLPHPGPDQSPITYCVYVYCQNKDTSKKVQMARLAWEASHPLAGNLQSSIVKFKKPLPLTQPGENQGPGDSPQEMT
RanGTP-Imp inh = inhibitors of RanGTP-importin-beta interaction, primary screen, biochemical, FRET, CFP-Ran, YFP-importin-beta, homogeneous; hit rate 1.1% among 300,000; AID 2216; cell-free CFP-Ran/YFP-importin-beta FRET ratio; inhibition, % (no concentration beside the values);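 active = most replicates above 15%; inconclusive = exactly half above 15%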;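 also: 0% = DMSO wells and 100% = Ran loaded with GDP instead of GTP; wells of about 40 µL received 100 nL stock; the first replicate is given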
UCH37 inh = blocks the human deubiquitinase UCH37 | hit rate 0.33% among 330,000 | inhibition, % (concentration not given with the values) | AID 588478 | purified proteasome/UCH37, Ub-AMC cleavage fluorescence | Q9Y5K5;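 active = mean of two replicates above 20%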;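 also: 0% = compound-free wells with enzyme and 100% = wells lacking proteasome; stock transfer was 100 nL into about 20 µL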
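Material: human UCH37 enzyme supplied as purified proteasome complex. Measure: % inhibition of Ub-AMC cleavage fluorescence. Medium: pH 7.4 Tris-HCl (50 mM) with ovalbumin, ATP-MgCl2, DTT. Times: 30 min preincubation with enzyme, 25 min cleavage at room temperature. Detection: AMC fluorescence intensity at 355/460 nm.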
Beta cell apopt = beta cell apoptosis inhibition | hit rate 0.8% among 300,000 | INS-1E cytokine-induced death, ATP luminescence, 48 h; percent of positive-control rescue, neutral wells zero | AID 435005 | protection from apoptosis, % (test concentration not listed);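 active = all replicates at 75% or more, or half of them and the mean; inconclusive = half reach 75% but not the mean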;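 also: 0% = cytokine-treated negative control wells and 100% = positive control rescue; higher means more ATP so stronger rescue from cytokine killing; wells of about 40 µL received 100 nL stock; the first replicate is given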
Beta2AR agonist = agonists of human beta-2 adrenergic receptor inducing internalization; hit rate 0.43% among 340,000; Am2.2-beta2AR cells, FAP receptor internalization, flow cytometry; reference of the scale not given here; response, % (test concentration not listed);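 active = response above a set limit, near 3 SD of response in nonfluorescent compounds, cut at about 42% in these data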;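 also: stock transfer was 100 nL into about 11 µL; a reference agonist was the positive control; negative values mostly stem from fluorescent compounds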
Bfl-1 A1 inh = inhibitors of the anti-apoptotic protein A1, read as caspase activation; MEF A1-2A-BIM cells, Caspase-Glo 3/7 luminescence, 3 h; percent of clofoctol response, vehicle zero; caspase activation, % (no concentration beside the values); hit rate 0.066% among 330,000;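 active = over half of replicate activation scores above 10%, or exactly half above 10 with the replicate mean above 10; inconclusive = replicate mean below 10 yet half the replicates above 10; inactive = over half of replicates below 10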;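 also: wells of about 30 µL received 50 nL stock; many hits fall short of the cut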
Calb FLC = C. albicans growth modulation with fluconazole; C. albicans CaCi-2 (fluconazole-resistant clinical isolate) + fluconazole, Alamar Blue growth, 48 h; growth inhibition, % (concentration not given with the values); hit rate 0.57% among 300,000;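 active = most replicates above 75%; inconclusive = exactly half above 75%; inactive = most below 75%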;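 also: all wells also contain fluconazole at 8 µg/ml as a sub-toxic cotreatment; 0% = median of DMSO wells and 100% = median of geldanamycin control wells; wells of about 8 µL received 7.5 nL stock; the first replicate is given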
* = called active by the depositor; i = inactive; ? = inconclusive; . = not tested or not shown.

SMILES	T cruzi inh	LANA-H2B inh	RanGTP-Imp inh	UCH37 inh	Beta cell apopt	Beta2AR agonist	Bfl-1 A1 inh	Calb FLC
CCC(C)NC(=O)c1ccc(NS(=O)(=O)c2ccc3[nH]c(=O)[nH]c3c2)cc1 (stereo unspecified)	-6.7	2.4	-0.1	1.1	3.1	-0.1	0.6	-11.0
CC1CC(C)CN(C(=O)COC(=O)c2cc3ccccc3oc2=O)C1 (stereo unspecified)	.	-2.8	.	-27.0	3.0	-3.9	0.1	.
C=CCOc1ccccc1CN1CCC(C(=O)Nc2cccc(-c3ccn[nH]3)c2)CC1	28.9	7.5	3.8	-0.1	-8.2	4.6	0.1	-11.8
O=[N+]([O-])c1cccc(CSc2ncnc3ccccc23)c1	13.9	-3.2	7.8	2.2	1.6	-8.2	-0.4	-2.1
COC(=O)c1ccc(-c2nc3ccccc3[nH]2)cc1	-2.2	0.2	1.1	i	10.9	-7.9	-9.2	-2.1
COCCn1c(-c2ccc(-c3ccc([N+](=O)[O-])cc3Br)o2)nc2c1c(=O)[nH]c(=O)n2CC(C)C	51.2	-3.8	-45.5	2.1	-1.4	-14.1	0.2	13.6
COC(=O)c1n[nH]n(-c2cc(Cl)cc(Cl)c2)c1=O	10.7	2.9	2.6	1.3	-4.5	0.9	-0.4	-2.0
O=C(NC(=S)NCc1ccccc1)c1ccccc1	-0.2	-0.4	?	-0.6	-1.8	-8.1	0.7	-35.5
Cc1ccc(C2=CSC3=NCCN23)cc1	-4.2	-3.0	1.0	1.3	4.4	-1.4	0.3	4.9
O=C(COC(=O)c1cccnc1)Nc1cccc(Cl)c1	-7.2	-2.6	-1.7	1.1	7.7	1.0	0.6	-8.4
Cc1cc([N+](=O)[O-])nn1CC(=O)NCc1ccc(Cl)cc1	-8.5	1.8	0.0	.	-2.8	-6.0	1.4	1.7
CC1=C(C(=O)OCc2ccccc2)C(c2ccsc2)NC(=O)N1C (stereo unspecified)	2.3	1.2	4.5	4.1	55.1	-3.9	0.1	3.4
CCN(CC)S(=O)(=O)c1cc([N+](=O)[O-])ccc1N1CCC(C(N)=O)CC1	32.1	-2.9	0.3	4.2	-3.4	13.4	-0.1	-15.0
O=C(O)C1Cc2ccccc2CN1C(=O)COc1ccc(Br)cc1 (stereo unspecified)	4.3	1.1	7.3	3.5	4.7	-1.4	0.0	-2.1
Clc1ccc(Nc2ncnc3c2cnn3-c2ccccc2)cc1	17.4	8.6	2.8	-14.0	19.1	3.5	-0.6	0.4
Cn1c(=O)n(Cc2ccccc2)c(=O)c2c1nc1n2CCCN1C1CCCCC1	27.8	3.5	0.7	2.7	-8.0	18.6	1.2	-10.5
CN(Cc1ccccc1)C(=O)C(C(=O)c1ccc(F)cc1)n1cc(Cl)ccc1=O (stereo unspecified)	-10.7	-2.7	-1.7	1.1	-1.7	-6.0	-0.4	-1.3
CCC(C)NC(=O)CS(=O)(=O)Cc1nc(-c2cccc(OC)c2)oc1C (stereo unspecified)	-8.4	9.3	2.7	1.9	-4.1	-8.3	-2.5	1.6
CS(=O)(=O)c1ccc2nc(NC(=O)C3CC3)sc2c1	28.6	-0.3	7.4	1.0	.	2.6	-0.3	-9.1
COc1ccc(CNC(=S)N/N=C(/C)c2ccccc2)cc1	-24.8	-4.1	6.0	.	-0.4	-4.0	-0.8	0.7
COc1ccc(NC(=O)COC(=O)CCc2ccc(S(=O)(=O)N3CCOCC3)cc2)cc1Cl	.	-0.3	.	2.5	0.3	5.1	0.7	.
O=C(CSc1ccc(-c2cccnc2)nn1)N1CCCCC1	-5.2	3.1	1.6	1.4	-22.5	-7.5	1.5	1.6
NC(CO)(CO)COCc1ccccc1	1.8	-3.0	-2.3	0.5	-0.3	-0.3	0.3	-9.3
CCCC1(CCC)NC(=O)N(CC(=O)Nc2ccc3c(c2)OCCO3)C1=O	.	7.2	.	3.6	-3.8	7.9	-0.2	.
CCOC(=O)C1=C(C)N=c2s/c(=C\c3ccc(OCC(=O)O)cc3)c(=O)n2C1c1ccc(Cl)cc1 (stereo unspecified)	-5.5	-5.5	1.0	.	.	5.5	-1.7	3.1
SMILES	T cruzi inh	LANA-H2B inh	RanGTP-Imp inh	UCH37 inh	Beta cell apopt	Beta2AR agonist	Bfl-1 A1 inh	Calb FLC
CCn1c(C)nnc1SCC(=O)Nc1nccs1	1.7	0.9	1.4	2.7	-1.9	3.4	-0.1	-2.1
O=C(Cn1cnc2c(oc3ccccc32)c1=O)NCCc1ccccc1	-11.0	0.8	4.1	2.0	0.1	-7.5	-0.9	1.3
CCOc1ccc(C(C(=O)NCC2CCCO2)N(C(=O)c2snc(C(N)=O)c2N)c2cccc(F)c2)cc1 (stereo unspecified)	9.8	-2.6	-2.0	-140.3	7.8	-0.8	0.0	0.1
CC(C)(C)N(Cc1ccccc1)C(=O)CSc1nc2ccccc2c(=O)[nH]1	-1.3	-3.9	-4.0	5.1	2.3	17.3	-0.8	6.1
CS(=O)(=O)Nc1ccc(C(=O)NC2CCCCC2)cc1	-6.7	6.6	-0.7	4.4	-6.6	-5.0	-0.2	-2.2
COc1ccc(C(=O)COC(=O)c2cc(S(=O)(=O)NCc3ccccc3)ccc2O)cc1	11.3	7.1	5.8	2.1	-0.2	6.9	0.3	-1.8
CC1CC(C)(C)CC2(C1)NC(=S)N(c1ccccc1)N2 (stereo unspecified)	-2.9	-3.1	3.7	0.8	.	-2.8	-0.3	5.0
Cc1cccc(Nc2ncc3c(n2)CC(c2ccco2)CC3=O)c1 (stereo unspecified)	13.7	3.9	4.2	-11.3	12.1	-1.2	-0.4	0.3
COc1ccccc1-n1cc(C(=O)NCC(=O)N2CCN(c3ccccc3)CC2)c2ccccc2c1=O	8.1	2.2	?	0.0	-4.2	-1.5	-0.4	-10.9
CC1CN(C(=O)CS(=O)(=O)Cc2ccc(Cl)cc2)CC(C)O1 (stereo unspecified)	4.8	1.5	3.5	1.5	-0.8	4.3	0.1	-4.6
Cc1ccccc1N1CCN(C2CCCN(C(=O)CCN3CCCCC3=O)C2)CC1 (stereo unspecified)	-3.9	5.7	4.6	2.3	-0.8	5.8	-0.6	-4.8
COc1cccc(NC(=O)CN(C)CC(=O)NCc2ccco2)c1	.	-7.8	.	-0.5	-3.9	-3.2	1.1	.
Cc1cccnc1NC(=O)c1ccc(S(=O)(=O)N2CC(C)OC(C)C2)cc1 (stereo unspecified)	-12.3	2.2	5.1	1.9	-5.5	5.3	0.5	-31.7
C=CCOc1ccc(CNc2nn[nH]n2)cc1	-10.1	1.0	-2.6	3.2	-4.2	-1.9	0.4	-13.2
Cn1c(=O)oc2cc(S(=O)(=O)NCCN3CCc4ccccc4C3)ccc21	-5.1	-0.2	5.0	3.4	0.7	-6.3	-0.1	1.5
CCCS(=O)(=O)c1nc(S(=O)(=O)c2ccc(C)cc2)c(N2CCC(O)CC2)s1	-2.4	3.5	4.9	5.6	0.4	2.5	0.6	-2.1
COC(=O)c1nc2n(n1)C(c1cc(OC)ccc1OC)C(C(=O)OC1CCCCC1)=C(C)N2 (stereo unspecified)	15.0	-3.0	?	5.2	-3.6	-0.5	0.5	9.9
CCOC(=O)N1CCN(C(=O)c2ccc(NS(=O)(=O)c3ccc4[nH]c(=O)[nH]c4c3)cc2)CC1	-2.5	-1.0	-1.7	0.2	-3.2	-4.0	1.4	1.6
CCS(=O)(=O)c1ccc2oc(Nc3ccc(OC)cc3)nc2c1	12.0	6.5	-1.3	6.2	0.4	0.6	-0.9	-0.2
COc1ccccc1CCNC(=O)CN1C(=O)c2ccccc2S1(=O)=O	-6.8	2.0	-2.7	4.1	-3.4	-0.5	-0.3	-2.2
O=C(NCC(c1cccnc1)N1CCN(c2ccc(F)cc2)CC1)c1ccc2c(c1)OCO2 (stereo unspecified)	?	3.5	2.4	2.6	-0.4	-4.1	1.2	10.8
COc1ccccc1Nc1cc2cc(Br)ccc2c(=O)[nH]1	-7.2	3.3	34.5*	20.7*	-2.2	-4.4	-1.3	-4.9
CC(C)NC(=O)C1CCN(C2CCN(C(=O)c3ccc4cccc(F)c4n3)CC2)CC1	-3.9	-2.4	3.1	1.4	-6.1	-2.5	0.2	3.3
Cc1ccccc1NC(=O)c1ccc(F)c(S(=O)(=O)N2CCCCC2)c1	8.3	5.9	-0.2	0.2	0.9	3.5	1.5	7.7
CCn1nc(CCC(=O)O)c2ccccc2c1=O	-4.6	1.3	4.6	3.4	-3.9	4.4	0.3	?
SMILES	T cruzi inh	LANA-H2B inh	RanGTP-Imp inh	UCH37 inh	Beta cell apopt	Beta2AR agonist	Bfl-1 A1 inh	Calb FLC
COc1cccc(-n2c(SCC(N)=O)nc3c([nH]c4ccccc43)c2=O)c1	3.2	3.9	1.0	-12.8	.	3.9	-1.0	18.5
CC1(C)CC(=O)C2=C(C1)N(Cc1ccco1)C(=O)NC2(C(F)(F)F)C(F)(F)F	-9.7	2.1	-3.6	1.9	-4.8	4.3	-0.2	-7.4
CC(=O)OC1=C(O)C(=O)c2ccccc2C1=O	11.8	1.5	3.6	.	-5.5	.	0.7	-2.1
CN(C)CCNC(=O)c1cccc(NS(=O)(=O)c2ccc(Cl)c(Cl)c2)c1	8.0	-2.3	5.1	1.0	0.1	-0.4	0.9	-2.8
O=C(COC(=O)c1cc(NS(=O)(=O)c2cccs2)ccc1O)Nc1ccccc1	1.0	-3.8	0.8	-0.6	-6.4	-5.5	0.7	-9.7
O=c1c2c(ncn1CCO)nc1n2CCC1	-4.5	2.6	-0.8	3.9	-0.4	8.1	0.7	-12.4
CC(C)c1c(O)nc(SCCN2CCOCC2)[nH]c1=O	-4.1	0.2	0.1	3.0	2.9	-22.1	0.0	4.2
CCN1C(=O)N(S(=O)(=O)C(F)(F)F)[C@@H](c2ccccc2)C(C(=O)OC)=C1C	-0.1	2.2	34.8*	1.3	-7.3	5.8	0.9	9.1
CCN(CC1COc2ccccc2O1)S(=O)(=O)c1ccc(C)cc1 (stereo unspecified)	-7.2	-0.5	-6.4	0.8	-7.6	-1.2	0.6	10.0
Cc1ccc(S(=O)(=O)NCCNC(=O)c2ccc(C)nc2)cc1	9.6	-5.8	2.9	1.7	1.8	4.1	0.5	9.0
CCC(C(=O)NCC1CCCO1)N(C(=O)CNS(=O)(=O)c1ccccc1)c1ccc(F)cc1 (stereo unspecified)	-6.8	2.0	0.3	1.5	0.8	-2.2	0.4	-6.1
O=C(NCCSCc1ccc(Cl)cc1)c1cccs1	-0.8	-2.9	0.7	2.6	-3.8	-6.1	1.8	-13.6
Cc1cccc(OCc2nnc(SCC(=O)N3CCCCC3)o2)c1	3.6	3.6	1.2	2.8	-0.8	-0.9	-0.2	4.3
Cc1cc(C)n2c(Nc3ccc4c(c3)OCCO4)c(-c3ccc(C)o3)nc2n1	25.0	7.7	-2.2	5.4	-5.1	-3.7	-0.8	7.6
CC1=C(OC(=O)C(C)(C)C)C(C)(C)C(c2ccccc2)OC1=O (stereo unspecified)	0.3	1.9	12.0	7.1	7.6	0.7	1.0	31.7

Screening data from PubChem.
